TDP1 block: inhibitors of human tyrosyl-DNA phosphodiesterase TDP1 | recombinant TDP1, AlphaScreen DNA substrate cleavage | AID 485290 | Potency, µM (top dose mostly 130 µM), for inactives: top-dose activity change, negative = inhibition, usual class: inhibitors | Q9NUW8 | 350,000 tested, 0.28% active; also: nearly all actives have a fitted effect of over 40% in size
Target sequence (Q9NUW8 whole entry, looked up): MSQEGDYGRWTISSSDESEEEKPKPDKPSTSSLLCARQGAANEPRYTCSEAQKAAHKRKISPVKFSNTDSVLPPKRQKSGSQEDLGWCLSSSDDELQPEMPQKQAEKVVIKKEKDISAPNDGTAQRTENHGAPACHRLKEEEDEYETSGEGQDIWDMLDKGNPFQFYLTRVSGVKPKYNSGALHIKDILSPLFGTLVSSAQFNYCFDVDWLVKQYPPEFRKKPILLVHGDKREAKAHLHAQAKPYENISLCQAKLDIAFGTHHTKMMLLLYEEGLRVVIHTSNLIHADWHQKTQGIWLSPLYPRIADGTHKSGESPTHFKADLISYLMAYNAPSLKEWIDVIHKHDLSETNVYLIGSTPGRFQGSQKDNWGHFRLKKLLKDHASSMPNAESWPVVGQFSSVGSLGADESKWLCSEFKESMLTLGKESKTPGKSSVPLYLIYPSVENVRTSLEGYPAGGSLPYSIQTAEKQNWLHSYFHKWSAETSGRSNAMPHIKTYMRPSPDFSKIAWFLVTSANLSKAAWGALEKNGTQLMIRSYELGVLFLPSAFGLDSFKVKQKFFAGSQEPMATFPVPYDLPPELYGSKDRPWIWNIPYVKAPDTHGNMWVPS
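E. coli-derived human Tdp1, 1 nM final. Cpd preinc 15 min RT; substrate 15 nM final, 5 min RT; AS bead mix 10 ug/ml final, 10 min RT. Signal loss = tyrosine-FITC cleavage. No-enzyme wells = max signal.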
N370S GC: inhibitors or activators of N370S glucocerebrosidase for Gaucher disease | P04062 | N370S GC spleen homogenate, 4MU-glucoside fluorescence | Potency, µM (titrated, usually from 59.4 µM), for the others: at the highest dose activity change, negative = inhibition, actives largely listed as inhibitors | 330,000 tested, 0.092% active;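 also: 0% = full enzyme activity and -100% = no enzyme basal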
The depositor's hits bear a star; ? = inconclusive; . = not tested or not shown; & = joins results of further samples; [ ] = another dose, or the depositor's remark. Calls follow the shape of the dose curve; as a rule, active = well fitted curve in the direction sought with a large enough effect; inconclusive = small, poorly fitted or top-dose-only effect, or another doubt; inactive = no such curve, though single readings can be large; an effect the other way counts as inactive or inconclusive. Unless noted, % is scaled to controls: 0 for no effect and ±100 for the full control effect; potency is read from the fitted curve at half-maximal effect.

SMILES	TDP1 block	N370S GC
COc1ccc(/C(O)=C2/C(=O)C(=O)N(CC3CCCO3)C2c2ccc(O)c(OC)c2)cc1 (stereo unspecified)	-8%	-13%
COc1ccc(NC(=O)c2cc(CC(C)C)on2)cc1OC	8%	3%
O=C(CSc1nnc(NC(=O)C2CCC2)s1)NC1CC1	3%	-5%
CCCC(=O)c1c[nH]c(C(=O)NCc2cccnc2)c1	3%	6%
CCCCn1cnc2cc(C)c(C)cc21	-1%	-15%
COC(=O)CCN(C(=O)c1cc([N+](=O)[O-])cc([N+](=O)[O-])c1)c1ccccn1	4%	7%
CCCN1C2CCCC1CC(NC(=O)c1ccc(C(C)(C)C)cc1)C2 (stereo unspecified)	.	-1%
CC(C)[C@H](NC(=O)N1CCn2c1nc1ccccc12)C(=O)NCC1CCCO1 (stereo partly specified)	0%	4%
COc1ccc(C(=O)N2CCCC(Nc3ccc(F)c(F)c3)C2)c(OC)n1 (stereo unspecified)	4%	5%
CN(C(=O)C1CCOC1)c1nnc(-c2cnccn2)s1 (stereo unspecified)	4%	0%
COc1ccc(/C=C/C(=O)NCC(=O)N/N=C(\C)Cc2ccccc2)cc1	2%	-10%
CCCCn1c(N)c(N(CC(C)C)C(=O)c2ccc3c(c2)NC(=O)C(C)S3)c(=O)[nH]c1=O (stereo unspecified)	1%	-5%
CCC(=O)/C=C1/Sc2ccc(OC)cc2N1CCO	-4%	-13%
COc1ccccc1Oc1ccc2c(c1)C(=O)N(c1ccc(O)cc1)C2=O	2%	0%
CCOc1ccc(N(CC(=O)Nc2cc(OC)cc(OC)c2)S(=O)(=O)c2c(C)[nH]c(=O)[nH]c2=O)cc1	4%&9%	?
CCCC(c1nnnn1Cc1ccc(OC)cc1)N1CCN(C(=O)c2ccco2)CC1 (stereo unspecified)	4%[0.0935 µM]	7%
CN(C1=C(NC(=O)c2ccc(Cl)cc2)C(=O)c2ccccc2C1=O)c1ccccc1	-3%	8%
Cc1cccn2c(CN[C@@H]3CCCC[C@H]3c3ccccc3)c(C(=O)N3CCOCC3)nc12	0%	4%
COc1ccc(NC(=O)Cn2c(C)cc(=O)c3ccccc32)cc1	0%	-8%
CSCCC(=O)Nc1nc(-c2ccccn2)cs1	10%	-3%
COC(=O)c1ccc(S(=O)(=O)NCc2cccc(OC)c2)n1C	1%	-25%
O=C1CN(c2ccc(Cl)cc2)C(=O)CN1NC(=S)Nc1ccc(Cl)cc1	2%	0%
O=C(COC(=O)c1ccco1)NCc1ccccc1Cl	-1%	-3%
O=C(Cc1c(F)c(F)c(F)c(F)c1F)OC12CC3CC(C1)C(=O)C(C3)C2	-2%	12%
Cc1ccc(C2CC(C(F)(F)F)n3nc(C(=O)NCCN4CCOCC4)cc3N2)cc1 (stereo unspecified)	4%	9%
CCCn1nc2cc(C(=O)NCc3ccc(C)cc3)ccc2c1OC	-3%	-16%
S=C(NCc1ccco1)NCC(c1ccco1)N1CCCCC1 (stereo unspecified)	0%	12%
CCOC(=O)c1cc(S(=O)(=O)NC2CCN(C(=O)OCC)CC2)cn1C	3%	-12%
Cc1ccccc1NC1c2ccccc2C(=O)N1Cc1ccco1 (stereo unspecified)	5%	1%
CCC1CCCCN1CCCNC(=O)c1ccc(CS(=O)(=O)Cc2ccc(Cl)cc2)o1 (stereo unspecified)	1%	?
O=C(O)C1CC(=O)N(CCc2ccccc2)C1 (stereo unspecified)	-4%	8%
COc1cc(/C=N/Nc2ccc(C(F)(F)F)cn2)ccc1O	-5%	8%
CSCCC(N=CC1=C(O)CC(C)(C)CC1=O)C(=O)O (stereo unspecified)	3%	3%
Cc1cc(C(=O)OCC(=O)N2CCOCC2)ccc1[N+](=O)[O-]	3%	-2%
COc1ccc(Cc2nc3ccc(C(=O)NC(C)c4cnn(C)c4)cc3o2)cc1 (stereo unspecified)	1%	-15%
CCOC(=O)C1CCN(S(=O)(=O)CCNC(=O)c2ccc3c(c2)OCO3)CC1	2%	3%
Cn1c2ccccc2c2c(C(=O)N3CCN(c4ccccc4)CC3)cn(C3CCCC3)c(=O)c21	-4%	11%
Cc1cccc(NC(=O)Nc2c(C)[nH]c(=O)[nH]c2=O)c1C	.	-12%
CC[C@H]1OC(=O)[C@H](C)[C@@H](O[C@H]2C[C@@](C)(OC)[C@@H](O)[C@H](C)O2)[C@H](C)[C@@H](O[C@@H]2O[C@H](C)C[C@H](N(C)C)[C@H]2O)[C@](C)(O)C[C@@H](C)C(=NOCOCCOC)[C@H](C)[C@@H](O)[C@]1(C)O	.	-2%
CCc1nnc(NS(=O)(=O)c2ccc(NC(=O)COc3ccc4ccccc4c3)cc2)s1	-3%	2%
O=C(CCc1nnc(C2(c3ccc(Cl)cc3)CCC2)o1)NCCCn1cccn1	4%	-5%
O=c1nc(Nc2ccccc2)sc2ccc([N+](=O)[O-])cc12	0%	-1%
Cc1cccc(Nc2nc(-c3sc(C)nc3C)cs2)c1	9%	0%
Cn1c(CC(=O)Nc2ccccc2)nnc1SCC(=O)c1ccccc1	2%	6%
Cc1cccc(NC(=O)C2CCCN(c3ncnc4c3nc3n4CCCCC3)C2)n1 (stereo unspecified)	.	1%
COc1ccc(NC(=O)NC2(C(=O)N3CCCC(C)C3)CCCCC2)cc1 (stereo unspecified)	.	2%
Cc1noc(/C=C/c2ccc(-c3ccccc3Cl)o2)c1[N+](=O)[O-]	5%	-4%
COC(=O)c1[nH]c2ccc(C)cc2c1NS(=O)(=O)c1ccc(F)c(C)c1	-3%	2%
O=C(Nc1ccccn1)C1CCCN(c2ncnc3c2nc2n3CCCCC2)C1 (stereo unspecified)	4%	3%
Cc1ccc(OCC(=O)NCCCNC(=O)c2cnccn2)cc1C	.	-2%
Cc1cc(OC(=O)c2ccc3ccccc3c2)c([N+](=O)[O-])c(=O)[nH]1	2%	0%
O=C(CCN1C(=O)c2ccccc2C1=O)Nc1cccnc1	5%	-13%
CC1=C(C(=O)Nc2cccc(C(=O)NC3CCCC(C)C3C)c2)SCCO1 (stereo unspecified)	1%	6%
CC(C)NC(=O)c1sc2nc3c(c(-c4cccs4)c2c1N)CN(C)CC3	4%	0%
CC1CCC(NC(=O)C2CCC(CNS(=O)(=O)c3cccc4nsnc34)CC2)CC1 (stereo unspecified)	-3%	-3%
COc1ccccc1NC(=O)c1cc(Cl)ccc1NC(=O)c1ccco1	-1%	5%
COC(=O)c1cn(C(=O)c2ccccc2F)nc1N	2%	3%
CC1(C)OCC(C2CC(c3ccccc3)NS(=O)(=O)O2)O1 (stereo unspecified)	.	2%
O=C(O)c1cccc(CN2C(=O)S/C(=C/c3cccc([N+](=O)[O-])c3)C2=O)c1	0%	-4%
CC(=O)Nc1cccc(NC(=O)CSc2ccc(-c3cccnc3)nn2)c1	8%	4%

Remaining list, next part.
SMILES	TDP1 block	N370S GC
CCCCn1c(SCC(=O)NCc2ccco2)nnc1-c1ccoc1C	.	1%
Cc1cccc(CC(=O)NCC2CCCCC2)c1	3%	0%
COc1cccc(NC(=O)CCN2C(=O)c3cccc([N+](=O)[O-])c3C2=O)c1	.	3%
O=C(CCCN1C(=O)/C(=C/c2cccs2)SC1=S)NNC(=O)c1ccncc1	1%	-6%
Cc1noc(NS(=O)(=O)c2ccc(NC(=O)c3cc(F)c(F)c(F)c3F)cc2)c1C	-1%	?
CCOc1ccc(S(=O)(=O)N2CCN(S(=O)(=O)c3ccc(C)c(C)c3)CC2)cc1	.	0%
CC#CCCc1nc2ccccc2c(=O)n1N	-1%	-20%
Cc1ccc(S(=O)(=O)c2nc(Nc3nccs3)sc2Cl)cc1	9%	11%
CC(C)(C)c1ccccc1NC(=O)COC(=O)CN1C(=O)NC2(CCCC2)C1=O	-6%	1%
COCCCNC(=O)c1cccc2c(=O)c(C)c(-c3ccccc3)oc12	5%	-9%
Cc1ccc(C)c(NC(=O)c2ccccc2O)c1	6%	-9%
COc1ccc(-c2csc(NC(=O)C3CSC4(C)CCC(=O)N34)n2)cc1OC (stereo unspecified)	.	2%
COc1ccc(-n2nnnc2SCC(=O)N2CCCC2)cc1OC	-8%	5%
O=C(O)c1ccccc1NCc1cccs1	.	0%
CCOC(=O)N1CCN(C(=O)Cn2c(C)cc3ccccc3c2=O)CC1	4%	-6%
O=S(=O)(Nc1cccc(-c2cn3c(n2)SCC3)c1)c1ccccc1F	11%	1%
Cc1oc(-c2ccccc2F)nc1CS(=O)(=O)CC(=O)NCc1ccccc1Cl	.	-12%
CC1CCCCC1NC(=O)NC(=O)CCl (stereo unspecified)	-4%	3%
O=C(NCc1ccccn1)c1ccc(NC(=O)c2ccco2)cc1	4%	1%
CCOc1ccccc1NC(=O)COn1nnc2ccccc21	2%	10%
COCCNC(=O)C(C)Oc1ccc(Cl)cc1Cl (stereo unspecified)	6%	0%
CC1(c2ccc(Cl)cc2)NC(=O)N(CN2CCOCC2)C1=O (stereo unspecified)	-2%	-9%
COc1ccc(-n2c(SCC(=O)N3CCOCC3)nc(O)cc2=O)cc1	4%	-1%
CCCn1c(=S)[nH]c2cc(C(=O)N(CCO)Cc3ccccc3)ccc2c1=O	3%	-3%
CCN(CC)S(=O)(=O)c1cc(C)c(C)cc1Br	0%	7%
C[C@@H]1CCC2[C@](C)(CO)[C@@H](O)CC[C@]2(C)[C@@]12CCC(CO)(CCO)O2 (stereo partly specified)	.	-19%
Cn1nc(-c2ccccc2)c(C(=O)Nc2ccc(Cl)cc2)c1Cl	-2%	1%
COCCCn1c(-c2ccccc2)nc2ccccc2c1=O	0%	5%
O=C(Nc1ccc(Nc2ccccc2)cc1)N1CCOCC1	9%	-7%
COc1c(OC(C)=O)ccc(/C=C/c2ccc3cccc(OC)c3n2)c1[N+](=O)[O-]	5%	-15%
CC(C)OCCCn1c(=N)c(S(=O)(=O)c2ccccc2)cc2c(=O)n3ccccc3nc21	3%	0%
COc1ccc(CNC(=O)c2ccc(Cn3cc(Cl)cn3)o2)cc1	.	-12%
O=C1C(C2=NC(C(=O)O)C3C(=O)N(c4ccccc4)C(=O)C23)=C(O)c2ccccc21 (stereo unspecified)	2%	-1%
O=C(NCc1ccc2c(c1)OCO2)C1CCN(c2ccc(S(=O)(=O)N3CCCC3)cc2)CC1	-5%	10%
O=C(Nc1ccc(C(F)(F)F)cc1)C1CC(=O)N(c2ccc3c(c2)OCCO3)C1 (stereo unspecified)	-2%	3%
O=c1c(Cl)c(N2CCN(c3ccc(F)cc3)CC2)cnn1-c1nc2ccccc2s1	1%	3%
COC(=O)CSc1nnc(SCc2ccccc2)s1	4%	-14%
CN1CCN(S(=O)(=O)c2cccc(C(=O)Nc3cc(C(F)(F)F)ccc3N3CCCC3)c2)CC1	1%[0.505 µM]	-5%
CCOC(=O)C1(Cc2cccc(Cl)c2)CCCN(C(=O)c2cc(CC)on2)C1 (stereo unspecified)	1%	-1%
Cn1c(SCC(=O)NC2CCCC2)nc2c(c1=O)SCC2	.	-19%
CN(C)C(=O)CSc1nc2ccccc2c(=O)[nH]1	9%	3%
CNC(=O)CSc1ncnc2c1cnn2-c1ccccc1	5%	-9%
O=C(NC1CCCCC1)N1CCCC(c2nc3ccccc3[nH]2)C1 (stereo unspecified)	-1%	-6%
O=C(NCCc1ccncc1)C(F)(F)F	14%	7%
CCCCCN(C(=O)CN1CCC(Cc2ccccc2)CC1)c1c(N)n(CCCC)c(=O)[nH]c1=O	-2%	-5%

Quoted at random: 2 compounds from above
SMILES	TDP1 block	N370S GC
CC(C)OCCCn1c(=N)c(S(=O)(=O)c2ccccc2)cc2c(=O)n3ccccc3nc21	3%	0%
CCOC(=O)C1(Cc2cccc(Cl)c2)CCCN(C(=O)c2cc(CC)on2)C1 (stereo unspecified)	1%	-1%

(continued)
SMILES	TDP1 block	N370S GC
O=C(c1cccc(S(=O)(=O)N2CCCC2)c1)N(Cc1ccco1)C1CCS(=O)(=O)C1 (stereo unspecified)	-2%	0%
O=C(NCc1ccccc1Cl)C1=Cc2cc(Br)ccc2OC1	5%	.
CC(C)COn1c(=S)[nH]c2ccccc2c1=O	5%	10%
COc1ccc(Cl)cc1-n1c(C)cc(C(=O)O)c1C	.	10%
O=C(COc1ccc(F)cc1)NN1C(=O)CSC1=S	-2%	-6%
COCc1c(C(=O)N/N=C(/C)c2ccc(OCc3ccccc3)cc2)nnn1-c1nonc1N	-7%	-13%
CN(C(=S)NC(=O)/C=C/c1ccc(F)cc1)C1CCCCC1	-3%	4%

Filtered by structure: those above with a thiophene ring, fused or not (3)
SMILES	TDP1 block	N370S GC
CC(C)NC(=O)c1sc2nc3c(c(-c4cccs4)c2c1N)CN(C)CC3	4%	0%
O=C(CCCN1C(=O)/C(=C/c2cccs2)SC1=S)NNC(=O)c1ccncc1	1%	-6%
O=C(O)c1ccccc1NCc1cccs1	.	0%

Bioassay records as filed in PubChem.

Only part of the results is shown, and most or all hits are left out here.
